Bfl-1 A1 inh: inhibitors of the anti-apoptotic protein A1, read as caspase activation | caspase activation, % (no concentration beside the values) | 330,000 compounds, 0.066% hits | MEF A1-2A-BIM cells, Caspase-Glo 3/7 luminescence, 3 h; percent of clofoctol response, vehicle zero;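 active means over half of replicate activation scores above 10%, or exactly half above 10 with the replicate mean above 10; inconclusive means replicate mean below 10 yet half the replicates above 10; inactive means over half of replicates below 10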;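 further: wells of about 30 µL received 50 nL stock; many hits fall short of the cut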
HNF4A DNA FP: change in binding of human HNF4 alpha to DNA. P41235. HNF4a-FITC DNA binding, fluorescence polarization, 1 h. activity change, % at 10 µM. 360,000 compounds, 0.3% hits. AID 1224865; in the data active means activity change above about 30%, passing the limit was not always enough;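 further: controls were the assay level and a saturating level of protein; the project sought stronger binding though the title names inhibitors; some compounds called inactive have numbers as strong as hits; positive values seem to mean higher polarization but the record does not say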
Ecoli growth: blocks Escherichia coli growth | OD600, 23 h; hits give low values | OD600 absorbance (concentration not given with the values) | 330,000 compounds, 0.21% hits;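 active means OD600 absorbance below the run mean of sample wells minus 3.6 SD, in any replicate, cut at about 0.56 in these data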;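 further: stock transfer was 300 nL into about 60 µL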
LANA-H2B inh: blocks KSHV LANA binding to histone H2A/H2B | Q9QR71 | cell-free LANA-H2A/H2B peptide, fluorescence polarization | inhibition, % (concentration not given with the values) | 320,000 compounds, 0.6% hits | AID 2629; in the data active means inhibition mostly above about 10%, no sharp cut-off; inactive means mostly below about 6.7%;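 further: stock transfer was 7.5 nL into about 10 µL; 0% = median of vehicle wells and 100% = median of positive control wells; one replicate is shown; the record names a cut of 25% in any replicate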
Target sequence (Q9QR71 whole entry, looked up): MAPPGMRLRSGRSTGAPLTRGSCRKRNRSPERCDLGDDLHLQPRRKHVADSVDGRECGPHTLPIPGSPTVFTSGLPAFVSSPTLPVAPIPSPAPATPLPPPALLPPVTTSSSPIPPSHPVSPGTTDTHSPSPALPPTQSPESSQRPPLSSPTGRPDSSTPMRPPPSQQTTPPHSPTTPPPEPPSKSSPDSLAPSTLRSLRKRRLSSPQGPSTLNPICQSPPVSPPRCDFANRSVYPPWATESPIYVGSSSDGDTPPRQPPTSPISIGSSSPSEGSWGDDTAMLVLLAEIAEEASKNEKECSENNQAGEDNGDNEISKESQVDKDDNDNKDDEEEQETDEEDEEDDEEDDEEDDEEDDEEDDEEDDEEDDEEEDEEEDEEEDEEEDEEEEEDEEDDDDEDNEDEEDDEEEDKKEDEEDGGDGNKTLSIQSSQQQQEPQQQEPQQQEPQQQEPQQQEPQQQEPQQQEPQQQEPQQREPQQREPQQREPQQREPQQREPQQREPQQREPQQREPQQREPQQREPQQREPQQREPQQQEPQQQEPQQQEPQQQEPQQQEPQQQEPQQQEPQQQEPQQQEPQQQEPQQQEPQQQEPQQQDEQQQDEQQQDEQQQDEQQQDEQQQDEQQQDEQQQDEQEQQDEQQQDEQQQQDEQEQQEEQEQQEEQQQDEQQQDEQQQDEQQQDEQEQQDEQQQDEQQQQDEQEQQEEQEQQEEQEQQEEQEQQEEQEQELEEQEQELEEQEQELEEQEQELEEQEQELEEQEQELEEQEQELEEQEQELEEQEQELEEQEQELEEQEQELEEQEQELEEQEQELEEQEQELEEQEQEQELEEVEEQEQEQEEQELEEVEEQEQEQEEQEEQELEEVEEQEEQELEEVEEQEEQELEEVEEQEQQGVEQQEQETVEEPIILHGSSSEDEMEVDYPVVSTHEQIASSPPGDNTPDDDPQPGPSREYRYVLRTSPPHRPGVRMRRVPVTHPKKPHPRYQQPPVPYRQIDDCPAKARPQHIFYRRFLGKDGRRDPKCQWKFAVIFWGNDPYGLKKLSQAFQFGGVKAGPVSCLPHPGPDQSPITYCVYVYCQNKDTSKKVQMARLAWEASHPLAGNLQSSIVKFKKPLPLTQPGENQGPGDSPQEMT
Vif TR-FRET: inhibitors of Vif binding to APOBEC3G peptide, primary screen, biochemical, TR-FRET, GST-Vif 1-94, biotin-A3G peptide, dose response retest (AID 1117319) | inhibition, %, or IC50 in µM where a hit was titrated | 260,000 compounds, 0.57% hits | TR-FRET GST-Vif / biotin-A3G peptide binding; higher % means a stronger effect; test concentration not given here; strong numbers were not always called active;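 active means above the screen mean plus three standard deviations and confirmed in dose response; inconclusive means results disagree or hit not tested in dose response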;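 further: Vif residues 1-94 fused to GST binding biotinylated APOBEC3G peptide 110-148; 0% = full assay without inhibitor and 100% = GST in place of GST-Vif; retest series ran down from 100 µM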
UCH37 DUB inh: inhibitors of human deubiquitinating enzyme UCH37; 330,000 compounds, 0.33% hits; inhibition, % (no concentration beside the values); AID 588478; purified proteasome/UCH37, Ub-AMC cleavage fluorescence;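 active means mean of two replicates above 20%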;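 further: 0% = compound-free wells with enzyme and 100% = wells lacking proteasome; stock transfer was 100 nL into about 20 µL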
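Signal – fluorescence, ex 355 nm, em 460 nm · System – Proteasome-bound UCH37 · Input – 0.15 nM proteasome as dispensed · Timing – 30 min preincubation with enzyme, 25 min cleavage at room temperature · Read-out basis – percent inhibition of cleavage signal versus uninhibited and no-proteasome wells · Medium – Tris-HCl pH 7.4 with ATP-MgCl2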
Beta2AR agonist: human beta-2 adrenergic receptor agonism by FAP. P07550. AID 504454. 340,000 compounds, 0.43% hits. response, % (test concentration not listed). Am2.2-beta2AR cells, FAP receptor internalization, flow cytometry; reference of the scale not given here;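 active means response above a set limit, near 3 SD of response in nonfluorescent compounds, cut at about 42% in these data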;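 further: stock transfer was 100 nL into about 11 µL; a reference agonist was the positive control; negative values mostly stem from fluorescent compounds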
* = called active by the depositor; ? = inconclusive; . = not tested or not shown.

Screens in order – Ecoli growth, Beta2AR agonist, Bfl-1 A1 inh, Vif TR-FRET, HNF4A DNA FP, LANA-H2B inh, UCH37 DUB inh
Cc1cc2ccc(C)c(C)c2nc1SCC(=O)c1cccs1
    0.728, -3.5, 0.4, 3.4%, 2.4, 0.7, 5.2
Cc1ccc(S(=O)(=O)NCC(=O)NCC(=O)OCC(=O)NC(=O)NC(C)(C)C)cc1C
    0.663, 3.7, -0.2, 11.3%, -3.3, -0.5, 2.0
COc1ccccc1CN(C)C(=O)C1(c2ccc(Cl)cc2)CC1
    0.67, -3.9, 0.4, ., -1.2, -1.0, 3.4
COc1ccc(C(=O)NCC(=O)OCC(=O)NC(=O)NC2CCCCC2)cc1OC
    0.691, 1.8, -0.7, 3.2%, 1.3, -3.6, -1.2
COc1ccc(S(=O)(=O)NCC2CCCN(C(=O)c3ccco3)C2)cc1 (stereo not given)
    0.667, -1.5, 0.0, -3.3%, 2.8, 2.5, -0.7
CCNC(=O)c1ccc(N(C)S(=O)(=O)c2cccs2)cc1
    0.668, -3.8, 0.4, -1.0%, 0.6, 1.1, -0.5
Cc1ccccc1S(=O)(=O)Cc1ccc(C(=O)NC2CCCCC2C)o1 (stereo not given)
    0.685, -1.0, 0.6, -7.1%, -3.8, -2.8, 3.6
Cc1ccc(C)c(S(=O)(=O)N2CCN(C(=O)C3CCN(c4ncnc5sc(C)c(C)c45)CC3)CC2)c1
    0.717, 17.0, 0.0, -12.7%, -5.8, 0.7, 3.2
COc1ccc(C(=O)Nc2cccc(/C=C(\CCC(=O)O)c3nc4ccccc4s3)c2)cc1
    0.683, 15.9, 0.9, 3.6%, -9.4, 0.7, -25.7
FC(F)(F)c1cc(Oc2ccc(Cl)cc2)nc(-c2ccccn2)n1
    0.701, -17.9, -0.5, -8.8%, -0.9, 1.8, 2.7
O=S(=O)(NCc1cccnc1)c1ccc(Br)c2ccccc12
    ., -0.2, -0.1, ., -2.2, -1.6, .
Cc1nnc(NC(=O)c2ccncc2)s1
    0.775, 2.5, -0.1, 2.8%, -0.6, 3.0, 6.6
Cc1ccc(NC(=O)CCC(=O)NNC(=O)c2cccs2)cc1C
    0.665, -8.5, ., 7.6%, -2.4, ., 5.1
CC1CCC2(CC1)NC(=O)N(CC(=O)Nc1cc(S(=O)(=O)N3CCCC3)ccc1Cl)C2=O (stereo not given)
    0.674, 4.5, 0.6, -2.4%, 2.4, -0.1, 1.7
COc1nc(-c2ccc3c(c2)OCO3)n(-c2ccc(NC(=O)CSc3ccccc3)cc2)n1
    0.684, -8.3, -0.1, ., -1.2, -2.6, 1.1
Fc1ccc(CN2CCN(C(=S)NCCc3ccccc3)CC2)c(Cl)c1
    0.66, 0.0, 0.9, -6.0%, -3.5, 1.3, 4.2
Cc1cnc(CN(C)C(=O)CC2C(=O)NCCN2Cc2cccc(F)c2F)[nH]1 (stereo not given)
    0.713, -2.5, 1.9, ., -8.7, 2.6, 3.0
CC(C)c1ccc(-c2nnn(CCC#N)n2)cc1
    0.674, -9.2, -0.5, 0.5%, -1.5, -0.6, -0.6
COc1cccc(/C=N/NC(=O)c2c(C)nc3ccc(Cl)cn23)c1O
    ., 5.0, -0.4, ., 4.7, 1.8, .
COc1cc(OC)c(OC)cc1CNCCNC(=O)c1ccco1
    0.644, -1.4, -1.8, ., 0.4, -0.1, -1.2
Cc1ccc(NC(=O)C2OCCc3ccccc32)cc1C (stereo not given)
    0.705, -6.6, -0.9, 3.5%, -1.3, -2.2, 5.0
CCOC(=O)C(Cc1ccc(NC(=O)/C(=C\c2ccccc2)NC(=O)c2ccccc2)cc1)N1C(=O)c2ccccc2C1=O (stereo not given)
    0.702, 0.9, 0.7, 19.0%, 2.1, 0.0, -2.2
CN(C)C(CNC(=O)C1CCCN1C(=O)c1cccs1)c1ccccc1 (stereo not given)
    0.662, ., 1.0, ., 1.5, -0.3, 0.0
Cc1cc(C)c(C#N)c(SCc2ccccc2)n1
    0.654, -2.5, -0.6, ., -2.2, -1.3, 0.9
CCSc1ccccc1C(=O)NCc1ccco1
    0.721, 3.0, -0.4, 2.5%, 2.3, -0.8, 2.1
O=C(NCCS(=O)(=O)N1CCN(c2ccccc2)CC1)c1cccc(F)c1
    0.636, -1.6, 1.9, 3.6%, 2.9, 1.7, -1.0
COc1cc(C2Nc3cccc4cccc(c34)N2)ccc1O
    0.618, 15.2, -0.3, 5.4%, 0.1, -0.5, -67.2
Cc1ccc(S(=O)(=O)NCC(=O)OCC(=O)c2ccc(S(=O)(=O)N3CCCCC3)cc2)cc1C
    0.673, -3.3, ., ., -2.7, ., 0.1
CN(C(=O)COC(=O)CNC(=O)CNC(=O)c1ccc(Cl)cc1Cl)c1ccccc1
    0.697, 3.9, 0.6, 0.3%, -4.0, 3.3, 3.8
CCCC(=O)Nc1ccc2c(c1)nc(CN1CCCCC1)n2C
    0.683, -7.0, 0.8, -0.1%, 4.9, 0.7, 0.5
COC(=O)Nc1cccn(Cc2c(Cl)cccc2Cl)c1=O
    0.719, 7.8, 0.2, 1.5%, 1.9, -1.2, 2.0
CN(CC(=O)Nc1ccc(F)c(F)c1F)C(=O)CCCSc1nc2ccccc2[nH]1
    0.656, 3.6, -0.3, 2.8%, 3.5, 4.1, -1.3
O=C(N/N=C/c1ccc([N+](=O)[O-])cc1)c1[nH]ncc1Br
    ., -4.4, 0.9, 6.5%, 3.4, 4.1, .
OC1(c2ccc3c(c2)OCO3)CCN(Cc2ccccn2)CC1
    0.657, -3.2, 0.9, -0.3%, -0.5, 1.5, 1.7
CCOC(=O)c1sc(=S)n(-c2ccc(C)cc2)c1SC
    0.702, -3.3, 0.2, -15.3%, -1.7, -1.9, 7.0
CC1CN=C(c2cccn2Cc2ccc(F)cc2Cl)O1 (stereo not given)
    0.706, -2.3, 0.6, -4.5%, -0.4, -4.8, 1.7
O=C(NCC1CCCO1)c1ccccc1S(=O)(=O)c1ccc([N+](=O)[O-])cc1 (stereo not given)
    0.708, -10.1, 0.2, -10.0%, -5.2, 6.1, 2.0
CCCOc1ccc(C(=O)NCCc2ccccc2)cc1
    0.695, -1.0, -7.6, -14.2%, 1.4, -7.2, 0.3
Cc1ccc(NC(=O)CNCc2cccs2)cc1Br
    0.642, 4.0, 0.9, 1.4%, 0.6, -5.7, 2.4
Nn1c(SCC(=O)Nc2cccc(Br)c2)nnc1C1CC1
    0.674, -0.5, -0.7, ., 0.0, -1.2, 2.6
CCCCN(C(=O)c1ccccc1Br)C1CCS(=O)(=O)C1 (stereo not given)
    0.71, -2.1, 0.4, 0.3%, -0.5, -4.9, -1.0
Fc1cccc(CCN2C(=S)NC[C@@H]2CC2CCCCC2)c1
    ., 1.0, 0.5, -0.4%, 1.2, -1.3, -0.1
COc1cc([N+](=O)[O-])ccc1NC(=O)C[n+]1cccc(C)c1
    0.693, -6.5, -0.2, 2.3%, 4.0, 0.4, 9.4
COc1ccc(NC(C)=O)cc1NC(C)C(=O)Nc1ccc(S(=O)(=O)N2CCCCC2)cc1 (stereo not given)
    0.679, 3.1, 1.7, -9.3%, 1.5, -1.0, 1.6
CC(CSc1nnnn1-c1ccccc1)Cn1c(N2CCCC2)nc2c1c(=O)[nH]c(=O)n2C (stereo not given)
    0.65, -8.0, 1.8, 4.2%, 1.2, 6.0, -1.0
Cc1cc2cc(C)c(NCCNC(=O)c3ccccc3F)nc2cc1C
    0.694, 5.3, -0.3, -0.7%, -0.7, 5.6, -27.6
CN(C)c1ccc(C(=O)OCC(=O)N2CCOCC2)cc1
    0.698, -1.6, 0.7, -3.6%, -3.1, -3.8, 4.2
COc1cccc(CSc2nc3nc(C)cc(C)n3n2)c1
    0.671, 2.7, -0.2, 0.6%, -1.4, -2.8, 0.7
CC1CCc2c(C(=O)NCc3cccnc3)csc2C1 (stereo not given)
    0.725, -16.7, 0.0, -2.8%, 1.7, -0.6, -0.3
COc1cc(Br)cc(Br)c1OCC(=O)N/N=C/c1c(C)n(C)n(-c2ccccc2)c1=O
    ., -6.0, 2.5, ., 0.7, -3.2, .
CCN(CC)S(=O)(=O)c1ccc(N=Nc2c(N)[nH]c(=O)[nH]c2=O)cc1
    0.662, 4.7, -3.6, 3.1%, 0.6, -3.5, 9.2
Cc1ccc2c(c1)C(O)(CC(=O)/C=C/C=C/c1ccccc1)C(=O)N2 (stereo not given)
    0.656, 2.4, 0.1, ., -1.1, 6.4, 8.6
CC(Sc1nnc(Cc2cccs2)n1C1CCCCC1)C(=O)N1CCc2ccccc21 (stereo not given)
    0.735, 0.6, ?, 2.1%, 2.8, -4.0, -0.4
CCOCCCNC(=S)Nc1cc(C)cc(C)c1
    0.681, 5.2, 0.0, ., -1.6, 9.8, -0.6
CC(C)CCN(C(=S)Nc1cccc(F)c1)C1CCN(C(C)C)CC1
    0.688, -6.4, 0.3, -13.0%, 4.5, 2.2, 4.8
Cc1csc(=O)n1CC(=O)OCC(=O)Nc1ccc(F)c(F)c1
    0.623, 2.4, 0.5, -3.2%, -1.3, -6.4, 0.4
COc1ccc(S(=O)(=O)N2CCCC2)cc1NC(=O)c1ccccc1F
    0.652, -5.6, 0.4, ., 3.9, -4.8, -16.1
CN(C(=O)COC(=O)CCc1c[nH]c2ccccc12)C(c1ccccc1)c1ccccc1
    0.704, 6.2, -0.3, ., 2.8, -2.1, 0.8
O=C(Nc1ccc(F)cc1)c1cncs1
    0.692, -6.1, 0.0, 3.8%, -1.1, -3.8, 1.6
CSc1ncccc1C(=O)Nc1cccc(S(=O)(=O)N2CCCC2)c1
    0.691, -0.7, -0.2, ., -3.4, -2.2, 1.1

The list continues.
Screens in order – Ecoli growth, Beta2AR agonist, Bfl-1 A1 inh, Vif TR-FRET, HNF4A DNA FP, LANA-H2B inh, UCH37 DUB inh
CCOc1ccccc1NC(=O)/C=C/c1ccc(S(=O)(=O)N2CCOCC2)cc1
    0.625, -7.4, ., 4.9%, 2.1, ., 3.2
C/C(=N/NC(=O)Cc1cccs1)c1ccco1
    ., 4.6, 0.2, ., 2.0, 0.4, .
O=C(/C=C/c1ccc(Br)o1)Nc1nnc(C2CC2)s1
    0.689, ., -0.5, ?, ., 6.5, 1.3
Cn1c(=O)c2c(ncn2CC(=O)Nc2ccccc2)n(C)c1=O
    0.746, -3.6, 0.7, -0.4%, 0.5, 15.5, -0.8
COc1ccc2nc(NC(=O)CSc3cn[nH]n3)sc2c1
    0.638, -10.1, -3.7, ., 4.0, 0.8, -0.2
COc1ccc(C(=O)NC(=S)Nc2ccc(N3CCOCC3)c(Cl)c2)cc1[N+](=O)[O-]
    0.68, 7.1, 0.6, 22.4%, -0.4, -2.9, 9.6
COc1cc(C(=O)NCCCNc2nc3c(C)cc(C)cc3cc2C#N)cc(OC)c1OC
    0.705, 5.7, -0.2, ., 1.1, -3.0, -74.6
COc1ccc(C(C)=O)cc1CSc1nnc(C)n1-c1ccccc1
    0.648, 0.9, 1.3, ., -1.6, -2.1, -0.8
Cc1ccc(-c2nnc(SCC(=O)N/N=C/c3ccc(C(=O)O)cc3)n2C2CCCCC2)cc1
    ., -0.1, 0.6, ., 3.4, 12.3*, .
COC(=O)Cc1ccc(NC(=S)N2CCN(c3ccc(F)cc3)CC2)cc1
    0.653, -8.1, 0.2, ?, -2.8, ., 1.2
CC(C)c1ccc(NC2CCCN(C(=O)c3n[nH]c4c3CCC4)C2)cc1 (stereo not given)
    0.666, -1.0, 0.5, -7.5%, 3.7, -0.4, 3.9
CCCn1c(=N)n(CC(=O)c2ccc([N+](=O)[O-])cc2)c2ccccc21
    0.684, 6.1, 0.2, -1.3%, -2.2, -0.1, 3.8
O=C(CSc1nc2ncccc2[nH]1)c1ccc(F)cc1
    0.605, -4.6, 2.6, 9.7%, -3.9, -4.5, 0.6

Compound activity: PubChem, several laboratories
